Bioassay records (PubChem)
HIV Env fusion – inhibitors of HIV-1 Env-driven cell-cell fusion, primary screen, HeLa-JRFL effector, CEM21 target cells, luciferase. inhibition, % at 12.3 µM. 360,000 compounds, 1.1% hits. AID 651610, 2012;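 active means mean replicate inhibition score of at least 50 and every replicate individually at or above 50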;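 further: 0% = plate neutral controls and 100% = maraviroc near 300 nM; one replicate is shown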
UUG fidelity – modulators of yeast start codon fidelity, primary screen, whole organism, S. cerevisiae, single point, plate reader; S. cerevisiae UUG-firefly luciferase reporter, luminescence/redox ratio; 350,000 compounds, 0.13% hits; activity score, % at 18.7 µM;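 active means replicate mean at a twofold rise or more, about +100% in these data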;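 further: firefly luciferase made from a UUG start codon reports start codon fidelity; reporter light over untreated wells divided by growth signal over untreated wells; some hits fall short of that in this replicate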
* marks the source's active call; other numbers are inactive results; [ ] = dose if it differs, or a comment. These rows are one share of the data, so the mix of outcomes need not match the whole.

SMILES | HIV Env fusion | UUG fidelity
C/C=C/c1ccc2c(c1)O[C@@H](CN(C)C(=O)CC)[C@H](C)CN([C@@H](C)CO)S2(=O)=O | -1.7[16.7 µM] | 7.0
C[C@@H]1CN([C@H](C)CO)C(=O)c2cccc(NC(=O)Nc3ccc(F)cc3)c2O[C@@H]1CN(C)Cc1ccc(-c2ccccc2)cc1 | -74.1[16.7 µM] | 1.0
COc1ccc(NC(=O)N(C)C[C@H]2OCc3cnnn3CCCC(=O)N([C@H](C)CO)C[C@@H]2C)c(OC)c1 | 27.5 | 13.2
C[C@H]1CCCCO[C@H](CN(C)C(=O)C2CCCCC2)[C@@H](C)CN([C@@H](C)CO)C(=O)c2cc(NS(=O)(=O)c3cccs3)ccc2O1 | -20.4[16.7 µM] | 4.1
O=C(Nc1ccc(F)cc1)N[C@H]1CC[C@H](CCn2cc(C3(O)CCCC3)nn2)O[C@@H]1CO | 11.9[16.7 µM] | -1.7
C[C@@H]1CN([C@H](C)CO)S(=O)(=O)c2ccc(C#Cc3cccc(F)c3)cc2O[C@H]1CN(C)C | 23.0[16.7 µM] | 19.8
C[C@H]1CN([C@@H](C)CO)C(=O)c2cc(NC(=O)Nc3ccc(C(F)(F)F)cc3)ccc2O[C@@H]1CN(C)Cc1ccc2c(c1)OCO2 | 0.7[16.7 µM] | -0.4
Cc1ccccc1S(=O)(=O)NCC[C@H]1CC[C@@H](NC(=O)C2CCCCC2)[C@H](CO)O1 | 8.4[16.7 µM] | 2.1
Cc1noc(C)c1NC(=O)Nc1ccc2c(c1)C(=O)N([C@@H](C)CO)C[C@H](C)[C@@H](CN(C)C(=O)Nc1ccc(F)cc1)OCCCC[C@H](C)O2 | 0.9[16.7 µM] | 20.2
C[C@H](CO)N1C[C@H](C)[C@H](CN(C)Cc2ccccc2)Oc2c(NS(C)(=O)=O)cccc2C1=O | 1.3[16.7 µM] | -5.1
COc1ccc(NC(=O)N(C)C[C@@H]2Oc3ccc(NC(=O)Cn4cnnn4)cc3CC(=O)N([C@@H](C)CO)C[C@H]2C)cc1 | -7.6[16.7 µM] | 4.6
C[C@H]1CN([C@@H](C)CO)C(=O)Cc2cc(NC(=O)NC3CCCCC3)ccc2O[C@@H]1CN(C)C(=O)Nc1cccc2ccccc12 | -10.1[16.7 µM] | 6.7
C[C@@H]1CN([C@H](C)CO)C(=O)c2cc(NC(=O)Nc3ccc(F)cc3)ccc2O[C@@H](C)CCCCO[C@@H]1CN(C)S(=O)(=O)c1cn(C)cn1 | 18.7[16.7 µM] | 8.2
C[C@H](CO)N1C[C@H](C)[C@@H](CN(C)S(=O)(=O)c2ccccc2)Oc2ncc(-c3ccncc3)cc2C1=O | -1.1[16.7 µM] | 15.5
COc1ccc(S(=O)(=O)N(C)C[C@@H]2Oc3ccc(NS(=O)(=O)c4ccc(F)cc4)cc3C(=O)N([C@@H](C)CO)C[C@H]2C)cc1 | -9.7[16.7 µM] | -4.6
C[C@@H]1CN([C@@H](C)CO)C(=O)c2cc(C#Cc3ccccn3)cnc2O[C@@H]1CN(C)Cc1ccncc1 | -6.9[16.7 µM] | -8.4
CNC(=O)C[C@H]1CC[C@H]2[C@@H](COc3ccc(NC(=O)Nc4ccccc4OC)cc3C(=O)N2C)O1 | -6.2[16.7 µM] | 4.3
C[C@@H]1CN([C@@H](C)CO)C(=O)c2cc(NS(=O)(=O)c3ccc(F)cc3)ccc2O[C@@H](C)CCCCO[C@H]1CN(C)S(=O)(=O)c1ccccc1 | -90.4[16.7 µM] | -1.7
C[C@@H]1CN([C@H](C)CO)C(=O)c2cc(N(C)C)ccc2O[C@@H]1CN(C)CC1CCCCC1 | 47.0[16.7 µM] | -3.8
Cc1ccc(S(=O)(=O)Nc2ccc3c(c2)C(=O)N([C@H](C)CO)C[C@H](C)[C@H](CN(C)S(=O)(=O)c2ccccc2)OCCCC[C@@H](C)O3)cc1 | -72.7[16.7 µM] | -10.9
C[C@H](CO)N1C[C@H](C)[C@H](CN(C)Cc2ccc(C(F)(F)F)cc2)Oc2c(NS(=O)(=O)c3ccc(F)cc3)cccc2C1=O | -20.8[16.7 µM] | 0.3
CC(=O)N(C)C[C@@H]1Oc2ncc(C#Cc3ccccc3)cc2C(=O)N([C@H](C)CO)C[C@H]1C | 1.8[16.7 µM] | -5.3
C[C@@H]1CCCCO[C@H](CN(C)C(=O)c2ccncc2)[C@@H](C)CN([C@H](C)CO)C(=O)c2cc(NC(=O)CCC(F)(F)F)ccc2O1 | -8.6[16.7 µM] | -5.4
C[C@@H]1CN([C@H](C)CO)C(=O)c2cccc(NC(=O)NC3CCCCC3)c2O[C@@H]1CN(C)Cc1ccc(C(F)(F)F)cc1 | 29.3[16.7 µM] | 3.4
C[C@@H]1CCCCO[C@H](CN(C)C(=O)Nc2ccc3c(c2)OCO3)[C@@H](C)CN([C@H](C)CO)C(=O)c2cc(NC(=O)C3CCCCC3)ccc2O1 | -8.3[16.7 µM] | 1.5

5 structures from above, sorted by heavy-atom count, falling.
SMILES | HIV Env fusion | UUG fidelity
Cc1noc(C)c1NC(=O)Nc1ccc2c(c1)C(=O)N([C@@H](C)CO)C[C@H](C)[C@@H](CN(C)C(=O)Nc1ccc(F)cc1)OCCCC[C@H](C)O2 | 0.9[16.7 µM] | 20.2
C[C@@H]1CN([C@H](C)CO)C(=O)c2cc(NC(=O)Nc3ccc(F)cc3)ccc2O[C@@H](C)CCCCO[C@@H]1CN(C)S(=O)(=O)c1cn(C)cn1 | 18.7[16.7 µM] | 8.2
C[C@H]1CN([C@@H](C)CO)C(=O)Cc2cc(NC(=O)NC3CCCCC3)ccc2O[C@@H]1CN(C)C(=O)Nc1cccc2ccccc12 | -10.1[16.7 µM] | 6.7
C[C@H](CO)N1C[C@H](C)[C@@H](CN(C)S(=O)(=O)c2ccccc2)Oc2ncc(-c3ccncc3)cc2C1=O | -1.1[16.7 µM] | 15.5
O=C(Nc1ccc(F)cc1)N[C@H]1CC[C@H](CCn2cc(C3(O)CCCC3)nn2)O[C@@H]1CO | 11.9[16.7 µM] | -1.7

More compounds:
SMILES | HIV Env fusion | UUG fidelity
C[C@@H]1CN([C@H](C)CO)C(=O)c2cccc(NC(=O)Nc3ccc(F)cc3)c2O[C@H]1CN(C)S(C)(=O)=O | 12.5[16.7 µM] | 1.6
CC(C)NC(=O)Nc1ccc2c(c1)CC(=O)N([C@@H](C)CO)C[C@H](C)[C@H](CN(C)Cc1ccccc1)O2 | 7.7[16.7 µM] | -4.6
C[C@@H]1CN([C@@H](C)CO)C(=O)c2cccc(NS(=O)(=O)c3cccs3)c2O[C@@H]1CN(C)C(=O)Nc1ccc(F)cc1 | -40.3[16.7 µM] | 9.4
O=C(N[C@H]1CC[C@H](CCNC(=O)C2CCCCC2)O[C@@H]1CO)c1ccncc1 | -7.6[16.7 µM] | -8.7
C[C@H](CO)N1C[C@H](C)[C@H](CN(C)C(=O)Nc2ccc(C(F)(F)F)cc2)OCCCC[C@H](C)Oc2ccc(NC(=O)Nc3cccc4ccccc34)cc2C1=O | -22.5[16.7 µM] | -11.3
COc1ccc(S(=O)(=O)N[C@@H]2CC[C@@H](CC(=O)NCCc3ccccc3)O[C@H]2CO)cc1 | 10.6[16.7 µM] | -5.2
COc1ccc(NC(=O)Nc2ccc3c(c2)C(=O)N([C@H](C)CO)C[C@H](C)[C@@H](CN(C)S(=O)(=O)c2ccc(Cl)cc2)OCCCC[C@H](C)O3)cc1 | 8.6[16.7 µM] | -4.4
C[C@@H]1CN([C@H](C)CO)C(=O)Cc2cc(NC(=O)Cn3cnnn3)ccc2O[C@@H]1CN(C)S(=O)(=O)c1cccs1 | -1.6[16.7 µM] | 5.1
Cc1ccc(-c2cnc3c(c2)C(=O)N([C@@H](C)CO)C[C@@H](C)[C@H](CN(C)C(=O)c2ccccc2)O3)cc1 | -1.9[16.7 µM] | 12.8
CC(C)c1cn(CC[C@H]2CC[C@@H](NC(=O)C3CCCCC3)[C@H](CO)O2)nn1 | 10.4[16.7 µM] | -6.5
CNC[C@H]1Oc2cc(C#Cc3ccncc3)ccc2S(=O)(=O)N([C@@H](C)CO)C[C@H]1C | -11.8[16.7 µM] | 2.9
C/C=C/c1ccc([C@H]2[C@@H](CO)N(C(=O)Nc3ccccc3F)[C@H]2C#N)cc1 | 11.5[16.7 µM] | -10.6
O=C(NCC[C@@H]1CC[C@@H](NC(=O)C2CC2)[C@@H](CO)O1)c1cnccn1 | -8.4[16.7 µM] | -2.1
COc1ccc(NC(=O)Nc2cccc3c2O[C@@H](CN(C)S(C)(=O)=O)[C@@H](C)CN([C@@H](C)CO)C3=O)cc1 | -3.9[16.7 µM] | -4.8
O=C(Cc1ccncc1)NCC[C@H]1CC[C@H](NC(=O)C2CCCC2)[C@@H](CO)O1 | 22.7[16.7 µM] | 2.9
CCCNC(=O)N1C[C@@H](O)COC[C@H]2O[C@H](CC(=O)NCCCN3CCOCC3)CC[C@@H]21 | 0.8[16.7 µM] | 7.7
CCCN(C)C[C@H]1OCCCC[C@@H](C)Oc2ccc(NS(=O)(=O)c3cn(C)cn3)cc2C(=O)N([C@H](C)CO)C[C@@H]1C | 14.1[16.7 µM] | 4.2
C[C@H](CO)N1C[C@H](C)[C@H](CN(C)Cc2ccc(Oc3ccccc3)cc2)Oc2ccc(NC(=O)Cc3cn(C)c4ccccc34)cc2C1=O | 23.5[16.7 µM] | 9.0
C[C@@H]1CN([C@H](C)CO)C(=O)Cc2cc(NC(=O)CCCCCC(=O)Nc3ccccc3N)ccc2O[C@@H]1CN(C)C(=O)NC1CCCCC1 | 7.7[16.7 µM] | 8.4
O=C1CC[C@@H]2c3[nH]c4ccc(Br)cc4c3CCN12 | -25.9[16.7 µM] | 12.2
Cc1ccc(S(=O)(=O)Nc2ccc3c(c2)C(=O)N([C@@H](C)CO)C[C@H](C)[C@H](CN(C)S(=O)(=O)c2cccs2)OCCCC[C@@H](C)O3)cc1 | -10.5[16.7 µM] | 0.4
C[C@H]1CN([C@@H](C)CO)C(=O)c2cc(NC(=O)Cc3ccccc3)ccc2O[C@H]1CN(C)CC1CCCCC1 | -7.9[16.7 µM] | 8.2
O=C(Nc1cccc(Cl)c1)N[C@@H]1CC[C@@H](CCNC(=O)C2CCC2)O[C@H]1CO | -15.9[16.7 µM] | -17.4
C[C@@H]1CN([C@H](C)CO)C(=O)c2cccc(NC(=O)Nc3cccc4ccccc34)c2O[C@@H]1CN(C)C(=O)Nc1ccc2c(c1)OCO2 | -25.7[16.7 µM] | 1.0
C[C@H](CO)N1C[C@H](C)[C@H](CN(C)Cc2ccc(C(F)(F)F)cc2)Oc2c(NC(=O)Nc3ccccc3)cccc2C1=O | 4.1[16.7 µM] | 6.6

The list continues.
SMILES | HIV Env fusion | UUG fidelity
C[C@@H]1CN([C@@H](C)CO)C(=O)c2cc(C3=CCCCC3)cnc2O[C@H]1CN(C)Cc1ccc(C(=O)O)cc1 | -13.6[16.7 µM] | 9.1
COc1ccc(COCC23N=C4SCCCN4[C@H](c4ccccc4O2)[C@H]3COC(=O)c2ccccc2)cc1 | 13.7[16.7 µM] | -12.5
O=C(NC1CCCCC1)N[C@H]1CC[C@@H](CCNS(=O)(=O)c2ccc(F)cc2)O[C@H]1CO | 1.4[16.7 µM] | 2.1
Cc1noc(C)c1NC(=O)NCC[C@@H]1CC[C@@H](NC(=O)c2ccncc2)[C@@H](CO)O1 | 6.5[16.7 µM] | -2.9
C[C@H]1CN([C@@H](C)CO)S(=O)(=O)c2ccc(C#Cc3ccncc3)cc2O[C@H]1CN(C)S(=O)(=O)c1ccc(F)cc1 | 22.4[16.7 µM] | -20.3
Cc1noc(C)c1NC(=O)N(C)C[C@H]1OCCCC[C@H](C)Oc2ccc(NC(=O)c3ccccc3)cc2C(=O)N([C@H](C)CO)C[C@@H]1C | 67.5*[16.7 µM] | -7.4
C[C@@H]1CCCCO[C@@H](CN(C)Cc2ccc3c(c2)OCO3)[C@@H](C)CN([C@H](C)CO)C(=O)c2cc(NS(=O)(=O)c3cn(C)cn3)ccc2O1 | -10.8[16.7 µM] | -1.6
COc1ccc(CN(C)C[C@@H]2Oc3ccc(NC(=O)Nc4c(C)noc4C)cc3C(=O)N([C@H](C)CO)C[C@H]2C)cc1 | 4.3[16.7 µM] | -11.9
COc1ccc(S(=O)(=O)N(C)C[C@@H]2OCCCC[C@@H](C)Oc3ccc(NC(=O)Nc4ccc5c(c4)OCO5)cc3C(=O)N([C@@H](C)CO)C[C@H]2C)cc1 | 16.4[16.7 µM] | -12.6
O=S(=O)(N[C@H]1CC[C@@H](CCNS(=O)(=O)c2ccccc2Cl)O[C@H]1CO)c1ccccc1 | 9.3[16.7 µM] | 5.3
C[C@@H]1CN([C@H](C)CO)C(=O)Cc2cc(NS(=O)(=O)c3cn(C)cn3)ccc2O[C@H]1CN(C)Cc1ccc(Cl)c(Cl)c1 | -4.1[16.7 µM] | 3.9
CO[C@@H]1CN(C)C(=O)c2cc(NS(C)(=O)=O)ccc2OC[C@H](C)N(C(=O)CN(C)C)C[C@@H]1C | -8.1[16.7 µM] | 0.5
CCCN(C)C[C@@H]1OCCCC[C@@H](C)Oc2ccc(NC(=O)CCC(F)(F)F)cc2C(=O)N([C@@H](C)CO)C[C@@H]1C | 5.2[16.7 µM] | 4.2
CC(C)NC(=O)Nc1ccc2c(c1)CC(=O)N([C@H](C)CO)C[C@H](C)[C@@H](CN(C)Cc1ccc(-c3ccccc3)cc1)O2 | 1.8[16.7 µM] | 6.9
C[C@H]1CN([C@@H](C)CO)S(=O)(=O)c2ccc(-c3ccccc3)cc2O[C@@H]1CN(C)C(=O)Cc1ccccc1 | -10.6[16.7 µM] | 11.1
Cc1ccc(-c2ccc3c(c2)O[C@H](CN(C)C(=O)Nc2ccc(F)cc2)[C@H](C)CN([C@@H](C)CO)S3(=O)=O)cc1 | -79.9[16.7 µM] | -10.5
C[C@@H]1CCCCO[C@H](CN(C)Cc2ccncc2)[C@@H](C)CN([C@H](C)CO)C(=O)c2cc(NC(=O)Nc3ccc(C(F)(F)F)cc3)ccc2O1 | -12.4[16.7 µM] | 0.9
